Rango release inh – inhibitors of RanGTP-induced Rango-importin beta complex dissociation | O95149+P62826 | Potency, µM (titrated, usually from 46.1 µM), for inactives: top-dose activity change, negative = inhibition | hit rate 0.071% among 340,000 | Biochemical FRET Rango-importin beta, RanGTP-induced dissociation; active means falling FRET ratio curve, often poorly fitted, with flat reads before Ran was added; inconclusive means other falling curves, or compound fluorescence or quenching; inactive means flat or rising ratio curve;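 also: potency is read from the fitted curve at half-maximal effect; % of control where 0% means no effect; nearly all actives have a fitted effect of over 45% in size; -100% = wells without RanGTP and RCC1; the record marks most hits as doubtful in a second field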
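Compounds preincubate 5 min with complex of recombinant Rango and importin beta in PBS with 1 mM DTT. Ran (0.6 uM) loaded with 2 mM GTP plus 0.2 uM RCC1 starts dissociation; FRET is recorded 45 min later.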
GLA inh pH 4.5 – inhibitors of human alpha-galactosidase A at pH 4.5; purified enzyme, 4-MU-alpha-Gal fluorescence, pH 4.5; activity change, negative = inhibition, % at 105 µM; 230,000 tested, under 10 active; inconclusive = small, poorly fitted or top-dose-only inhibition, or a rising curve; inactive = flat fitted curve, though single readings scatter; no compound was filed as active;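 also: 0% = full activity with enzyme and -100% = basal without enzyme; dose as in the result columns while the protocol names 77 µM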
Target sequence (P06280 whole entry, looked up): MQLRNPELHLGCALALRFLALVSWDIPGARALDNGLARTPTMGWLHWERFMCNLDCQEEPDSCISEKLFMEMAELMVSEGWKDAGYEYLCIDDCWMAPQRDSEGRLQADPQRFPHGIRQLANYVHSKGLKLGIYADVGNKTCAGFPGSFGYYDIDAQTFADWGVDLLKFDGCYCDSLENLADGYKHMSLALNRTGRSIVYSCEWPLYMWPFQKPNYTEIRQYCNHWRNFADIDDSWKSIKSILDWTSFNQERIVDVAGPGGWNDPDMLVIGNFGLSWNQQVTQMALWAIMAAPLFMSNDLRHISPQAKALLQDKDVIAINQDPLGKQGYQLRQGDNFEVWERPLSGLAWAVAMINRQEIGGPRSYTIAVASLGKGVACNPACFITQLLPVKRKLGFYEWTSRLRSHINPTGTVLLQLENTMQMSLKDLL
Rango-impB inh – inhibitors of Rango-importin beta complex formation | Q14974 | Rango CFP/YFP FRET sensor + importin beta, 45 min | Potency, µM (doses to about 92.2 µM), inactives show at the top dose inhibition of complex formation | AID 540263 | hit rate 0.031% among 340,000; active = rising FRET ratio curve, often small or poorly fitted; inconclusive = mostly compound fluorescence or quenching in the first reads; inactive = flat curves in all reads;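 also: potency is read from the fitted curve at half-maximal effect; 0% = DMSO wells and 100% = buffer wells lacking importin beta; nearly all actives have a fitted effect of over 15% in size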
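FRET biosensor Rango (snurportin 1 IBB between N-terminal EYFP and C-terminal Cerulean), 50 nM in PBS/1 mM DTT/0.02% Tween-20/0.1% BSA, preincubated 5 min RT with compound; 0.125 microM importin beta added, 45 min RT, CFP/YFP FRET ratio read.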
miR-21 reporter – raises the signal of a miR-21 reporter; HeLa miR-21 FLuc reporter, luciferase, 48 h; Potency, µM (series often up to 38.3 µM), without a hit: at the top dose reporter change, positive = more light; 340,000 tested, under 10 active; active = well fitted rising curve with a large enough effect; inconclusive = small, poorly fitted or top-dose-only effect; inactive = no such curve, though single readings can be large or run the other way;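 also: % of control where 0% means no effect; miR-21 action dims this reporter so a rising signal means less miR-21 action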
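Using DMEM plus 10% FBS, HeLa miR-21-FLuc cells are incubated with test compounds (final up to about 40uM) for 48 hours; firefly luciferase signal is then imaged following reagent-mediated lysis.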
* hit, by the source's call; ? = inconclusive; . = not tested or not shown; & = joins results of further samples. This is a subset. The share of hits here may be higher or lower than overall.

Rango release inh | mol | GLA inh pH 4.5 | Rango-impB inh | miR-21 reporter
9.3% | Nc1nonc1C(=O)NCCNCc1cc(Br)ccc1OCc1ccc(F)cc1 | 1.7 | 0.5% | 14.6%
-2.8% | O=c1c2[nH]c3cccc(Cl)c3c2ncn1Cc1ccco1 | -5.1 | 2.4% | -2.7%
11.1% | COc1ccc(/C=C/C(=O)NCc2ccc3c(c2)OCO3)cc1OC | . | -0.3% | .
8.8% | CCNc1nc(Oc2ccc(C(=O)OC)cc2)nc(SC)n1 | -1.5 | 0.0% | 6.3%
-4.5% | CCOC(=O)c1c(C)[nH]c(C)c1C(=O)COC(=O)c1cc2ccccc2cc1O | -20.6 | -2.5% | 1.0%
14.2% | Cc1ccc(SCCC(=O)Nc2cccc(N(C)S(C)(=O)=O)c2)cc1 | 4.4 | -2.4% | 12.6%
-8.9% | Cc1ccc(C)c(NC(=S)Nc2ncccc2C)c1 | -9.8 | ? | -58.1%
-0.2% | Cc1ccc(C)n1-c1ccc(N2CCOCC2)nc1 | -7.5 | 0.0% | -1.8%
9.4% | CC(NC(=O)CN(c1ccc(Br)cc1)S(C)(=O)=O)c1ccccc1 (stereo not drawn) | . | -2.3% | 8.6%
10.6% | Cc1ccc(C(C(=O)NCc2ccco2)N(Cc2ccco2)C(=O)CNC(=O)c2ccco2)cc1 (stereo not drawn) | 4.9 | -0.1% | -3.8%
0.7% | CCCSc1nc(N)cc(=O)[nH]1 | 5.6 | -0.2% | -3.9%
6.2% | Cc1ccc(OCC(=O)NCCCNC(=O)c2ccco2)cc1 | . | -1.2% | 0.9%
18.0% | O=C1OCCC1Sc1nnc(-c2ccc(F)cc2)n1Cc1ccccc1 (stereo not drawn) | 0.1 | -0.6% | -1.5%
26.4% | Cc1nc2sccn2c(=O)c1S(=O)(=O)NCCc1ccccc1 | . | 2.5% | -3.1%
-13.4% | O=C(NCC1CCCO1)/C(=C/c1ccccc1F)NC(=O)c1ccccc1 (stereo not drawn) | . | 2.9% | 1.5%
0.4% | COc1ccc(C(=O)CSc2nccn2C)c(OC)c1 | . | -0.6% | -51.9%
-10.6% | CCOc1ccc(-n2ccnc2SCC(=O)Nc2nnc(CC)s2)cc1 | 2.6 | 0.2% | 9.8%
10.7% | Cc1ccccc1CC(=O)Nc1sc(C(C)C)cc1C(=O)N1CCOCC1 | . | 6.2% | -1.8%
23.4% | O=C(NCCc1c[nH]c2ccccc12)c1ccc(Br)o1 | . | 5.8% | .
? | N=c1c(C(=O)NC2CCCCC2)cc2c(=O)n3ccccc3nc2n1Cc1ccc(F)cc1 | . | -3.4% | 2.0%
3.7% | O=C(c1cccc2c1-c1ccccc1C2)N1CCCCC1 | 2.2 | 0.0% | 2.7%
28.6% | COC(=O)c1cc(Oc2ccc(S(=O)(=O)N3CCOCC3)cc2[N+](=O)[O-])cc(C(=O)OC)c1 | . | -2.9% | .
0.4% | CCOC(=O)CNC(=O)CSc1nnc(-c2ccncc2)n1-c1ccc(Cl)cc1 | 1.3 | 2.0% | 0.7%
-8.6% | CCOc1ccc(OCCC(=O)N(CCCOC)c2c(N)n(Cc3ccccc3)c(=O)[nH]c2=O)cc1 | . | -1.5% | .
3.7% | CCN(CC)S(=O)(=O)c1ccc(Oc2ccccc2)c(N)c1 | -8.0 | -2.6% | 4.9%

The list continues.
Rango release inh | mol | GLA inh pH 4.5 | Rango-impB inh | miR-21 reporter
1.4% | O=C(NCC1CCCO1)c1ccc(C(=O)NCC2CCCO2)cc1 (stereo not drawn) | 11.7 | 1.0% | -4.5%
0.2% | O=C1C2C(C(=O)N1/N=C/c1ccco1)C1C=CC2C12CC2 (stereo not drawn) | -0.8 | -0.5% | -10.0%
1.2% | O=C(COc1ccc(Br)cc1)N1CCOCC1 | 3.9 | 0.1% | -19.7%
20.7% | C/C(=N/NC(=O)C(C)n1nc(C)c([N+](=O)[O-])c1C)c1ccc(OCC(N)=O)cc1 (stereo not drawn) | -0.6 | 5.9% | -3.2%
13.8% | O=C(NCCc1ccc(Cl)cc1)C1CCN(S(=O)(=O)N2CCCCC2)CC1 | -3.5 | 6.6% | 0.6%
15.1% | C=CCn1c(SCC(=O)N(C)C2CCCCC2)nnc1C1CC1 | . | ? | .
1.4% | O=C(N/C(=C/c1ccccc1Cl)C(=O)N1CCOCC1)c1ccccc1 | . | -0.1% | .
5.0% | C=C(C1=CCN(S(=O)C(C)(C)C)[C@@H]1CCO)c1ccccc1 (stereo partly drawn) | . | 2.0% | .
-2.6% | COc1ccc(NC2=C(C(C)=O)C(c3ccccc3)C(C(C)=O)C(C)(O)C2)cc1 (stereo not drawn) | -3.8 | 0.7% | -5.6%
11.8% | Cn1c(=N)n(CC(=O)c2ccc(Br)s2)c2ccccc21 | 2.3 | 0.7% | -59.7%
2.0% | Cc1ccc(S(=O)(=O)N2CCOCC2)cc1NC(=O)CN1C(=O)NC2(CCCC2)C1=O | . | -2.7% | .
0.8% | Cc1cccc(C(=O)NC2CCN(CC(=O)NCc3ccccc3F)CC2)c1 | . | -1.2% | -0.8%
1.1% | COc1cc2c(cc1OC)C1=CC(=O)C(=O)N1C(C)(C)C2 | 6.1 | -0.4% | -36.3%
-10.1% | Cc1ccn2cc(-c3cccc(NC(=O)c4ccccc4)c3)nc2c1 | -4.6 | 0.3% | -46.4%
-7.0% | O=C(CN(C(=O)CNC(=O)c1ccco1)c1ccc2c(c1)OCCO2)NC1CCCC1 | 4.3 | 6.3% | -2.1%
15.1% | O=C1OC(c2ccccc2)C2(CCCC2)C(=O)C12CCCC2 (stereo not drawn) | 1.9 | 0.5% | -5.7%
2.3% | CCc1cccc(N(C)C(N)=Nc2cccc3ccccc23)c1 | -4.2&-8.1 | -0.2% | 6.4%
14.4% | CCc1nnc(NC(=O)C2CCN(C(=O)c3ccco3)CC2)s1 | . | -5.4% | -0.4%
2.6% | Cc1ccc(CCNC(=O)c2cccc(NC3=NC4CS(=O)(=O)CC4S3)c2)cc1 (stereo not drawn) | . | 4.9% | -5.0%
7.0% | O=C(O)c1cccn1Cc1ccccc1F | 7.6 | -0.3% | 0.6%
-0.2% | COc1ccccc1OCCNC(=O)CN(c1cccc(C)c1)S(=O)(=O)c1ccccc1 | . | -1.5% | 14.4%
-4.1% | Cc1ccnc(SCC(=O)Nc2oc(-c3ccccc3)c(-c3ccccc3)c2C#N)n1 | -8.7 | -6.7% | -0.5%
6.3% | Cc1cc(Cl)ccc1OCC(=O)N/N=C/c1ccncc1 | . | -1.4% | 3.0%
-2.3% | CO/N=C(\N)c1nonc1N | -8.5 | 5.5% | 1.6%
-16.6% | COc1cccc(C=Nc2ccccc2C(=O)Nc2ccccc2)c1O | 4.5 | 0.1% | -40.1%

Of the compounds above, these contain bromine.
Rango release inh | mol | GLA inh pH 4.5 | Rango-impB inh | miR-21 reporter
9.3% | Nc1nonc1C(=O)NCCNCc1cc(Br)ccc1OCc1ccc(F)cc1 | 1.7 | 0.5% | 14.6%
9.4% | CC(NC(=O)CN(c1ccc(Br)cc1)S(C)(=O)=O)c1ccccc1 (stereo not drawn) | . | -2.3% | 8.6%
23.4% | O=C(NCCc1c[nH]c2ccccc12)c1ccc(Br)o1 | . | 5.8% | .
1.2% | O=C(COc1ccc(Br)cc1)N1CCOCC1 | 3.9 | 0.1% | -19.7%
11.8% | Cn1c(=N)n(CC(=O)c2ccc(Br)s2)c2ccccc21 | 2.3 | 0.7% | -59.7%

3 neighbouring records from above, for reference:
Rango release inh | mol | GLA inh pH 4.5 | Rango-impB inh | miR-21 reporter
9.3% | Nc1nonc1C(=O)NCCNCc1cc(Br)ccc1OCc1ccc(F)cc1 | 1.7 | 0.5% | 14.6%
-2.8% | O=c1c2[nH]c3cccc(Cl)c3c2ncn1Cc1ccco1 | -5.1 | 2.4% | -2.7%
11.1% | COc1ccc(/C=C/C(=O)NCc2ccc3c(c2)OCO3)cc1OC | . | -0.3% | .

Back to the main list; the 3 compounds before the break are reprinted first.
Rango release inh | mol | GLA inh pH 4.5 | Rango-impB inh | miR-21 reporter
6.3% | Cc1cc(Cl)ccc1OCC(=O)N/N=C/c1ccncc1 | . | -1.4% | 3.0%
-2.3% | CO/N=C(\N)c1nonc1N | -8.5 | 5.5% | 1.6%
-16.6% | COc1cccc(C=Nc2ccccc2C(=O)Nc2ccccc2)c1O | 4.5 | 0.1% | -40.1%
16.2% | CC(=O)c1ccc(-n2nnnc2SCC(=O)Nc2sc(C)c(C)c2C#N)cc1 | 2.7 | -1.3% | -17.5%
0.3% | O=C(C1=C[C@@H](c2ccccc2)C[C@@H](OCc2ccc(CO)cc2)O1)N1CCN(Cc2ccc3c(c2)OCO3)CC1 | -7.4 | -3.3% | 28.2%
-5.4% | COc1ccc(Cl)cc1NC(=O)C(=O)N/N=C/c1cc(C)n(-c2ccc(C)cc2)c1C | 4.9 | -1.4% | -1.4%
-16.1% | CCCS(=O)(=O)N1CCN(C(=O)c2cc(OC)cc(OC)c2)CC1 | -1.0 | 1.1% | 0.5%
5.1% | COc1ccc(Cc2nnc(SCC(=O)NC3CCCCC3)n2C)cc1 | 0.9 | -0.5% | -2.9%
13.1% | O=C(Nc1cc(S(=O)(=O)N2CCOCC2)ccc1N1CCOCC1)c1ccccc1[N+](=O)[O-] | . | 0.1% | .
5.5% | Cc1ccc(S(=O)(=O)N2CCN(C(=O)COC(=O)Cc3ccc(F)cc3)CC2)c(C)c1 | . | 1.9% | .
14.5% | COC(=O)c1ccc(NC(=O)CSc2nnc(C3CC3)n2C)cc1 | . | 5.3% | 1.3%
0.2% | CCOC(=O)Nc1sc(NS(=O)(=O)c2ccc(C)cc2)nc1C | 7.8 | -0.3% | -0.1%
-2.0% | CCOc1ccc(N2C(=O)CC(NCCc3ccc(S(N)(=O)=O)cc3)C2=O)cc1 (stereo not drawn) | -1.7 | 0.0% | -5.8%
0.5% | CC(CCc1ccccc1)NC(=O)C1CCCN(C(=O)c2cc3sccc3n2C)C1 (stereo not drawn) | -14.9 | -3.5% | 18.9%
-26.9% | CCNC(=O)/C(=C/c1ccco1)NC(=O)/C=C/c1ccccc1 | -0.8 | ? | -7.6%
-6.1% | COc1ccc(/C(C)=N/NC(=O)CNC(=O)c2cccnc2)cc1 | . | -0.2% | -0.7%
9.5% | COCc1cc(C)n(CC(=O)Nc2c(C)cccc2C)c(=O)c1C#N | 8.7 | -0.2% | -1.1%
7.1% | CCOC(=O)[C@@H]1[C@H]2COc3cc(OC)ccc3[C@@H]2N2C(=O)N(c3ccc(C(F)(F)F)cc3)C(=O)[C@@]12C | . | 3.6% | 8.0%
-5.7% | C#CCOc1c(Cl)cc(/C=N/NC(N)=S)cc1OCC | ? | -4.4% | 10.9%
-7.3% | COc1ccc(OC)c(C(=O)N/N=C/c2ccccn2)c1 | . | 1.9% | -28.0%
-7.5% | CN(C)C(=O)c1ccc(NC(=O)CN2C(=O)NC3(CCCc4ccccc43)C2=O)cc1 (stereo not drawn) | . | -0.3% | .
-10.6% | COc1ccc(CCN2CC(C(=O)NCCc3ccccn3)CCC2=O)cc1 (stereo not drawn) | . | 1.6% | -5.6%
1.6% | CC(Oc1ccccc1)C(=O)N1CCN=C1SCc1ccccc1F (stereo not drawn) | -18.1 | -0.5% | -6.2%
2.8% | CC(C)(C)c1nnc(NC(=O)c2cccnc2Cl)s1 | 2.4 | 1.4% | -14.0%
2.3% | C[C@H](CCC(=O)NCC(=O)O)[C@H]1CC[C@H]2C3[C@H](O)C[C@@H]4C[C@H](O)CC[C@]4(C)[C@H]3C[C@H](O)[C@]12C (stereo partly drawn) | . | 1.8% | .
-5.8% | O=C(Nc1ccccc1)OCc1cc(-c2ccccc2Cl)on1 | -3.6 | 2.3% | -70.9%
14.2% | COc1ccc(CN2CN=C(Nc3nc4ccccc4s3)NC2)cc1 | -8.7 | -1.2% | -4.9%

Compound activity: PubChem BioAssay, National Center for Advancing Translational Sciences (NCATS)
